Screens deposited in PubChem by several laboratories.
RecA splice inh: inhibitors of M. tuberculosis RecA intein splicing; inhibition, %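 (about 9 µM by stock and volumes)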; P9WHJ3; cell-free RecA intein splicing, fluorescence; actives 0.75% (n = 290,000); in the data active means inhibition above about 30%; inconclusive means no clear call, values can overlap the other calls;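 further: 0% = vehicle wells and 100% = reference inhibitor control wells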
Target sequence (P9WHJ3 whole entry, looked up, canonical isoform): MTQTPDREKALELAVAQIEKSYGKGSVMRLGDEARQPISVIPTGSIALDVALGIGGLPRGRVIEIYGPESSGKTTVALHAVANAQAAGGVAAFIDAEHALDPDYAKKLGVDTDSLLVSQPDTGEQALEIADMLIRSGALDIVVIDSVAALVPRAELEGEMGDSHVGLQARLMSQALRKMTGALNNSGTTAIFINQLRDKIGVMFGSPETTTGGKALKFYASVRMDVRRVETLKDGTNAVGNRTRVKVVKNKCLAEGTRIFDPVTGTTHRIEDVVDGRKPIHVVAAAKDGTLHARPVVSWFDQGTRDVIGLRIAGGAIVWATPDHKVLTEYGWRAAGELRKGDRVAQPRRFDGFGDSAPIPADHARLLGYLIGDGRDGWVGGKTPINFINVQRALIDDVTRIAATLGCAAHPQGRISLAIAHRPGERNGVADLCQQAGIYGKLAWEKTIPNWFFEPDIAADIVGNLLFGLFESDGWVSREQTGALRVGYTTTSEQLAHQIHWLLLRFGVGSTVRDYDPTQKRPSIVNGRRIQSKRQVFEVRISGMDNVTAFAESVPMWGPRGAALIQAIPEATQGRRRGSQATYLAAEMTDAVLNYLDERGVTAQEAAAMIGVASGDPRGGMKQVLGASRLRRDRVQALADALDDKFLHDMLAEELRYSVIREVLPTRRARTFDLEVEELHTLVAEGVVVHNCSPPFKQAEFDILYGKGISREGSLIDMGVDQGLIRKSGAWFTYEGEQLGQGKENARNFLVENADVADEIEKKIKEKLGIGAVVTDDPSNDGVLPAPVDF
YopH inh: YopH (Yersinia) phosphatase inhibition; inhibition, %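 (about 10 µM by stock and volumes)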; fluorescence Ex485/Em525; AID 898; actives 0.16% (n = 140,000);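 active means inhibition of 50% or more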;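 further: controls were vehicle for no effect and minimum signal wells for full effect; inactives centre near -20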
Mtb betalactam: beta-lactam sensitization of Mtb H37Rv | M. tuberculosis H37Rv growth with meropenem, percent inhibition; hits of this screen are not shown here | inhibition, % at 25 µM | actives 0.27% (n = 330,000);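 active means about 74% or more and at least 40 points above the plate without the antibiotic, then above 30% in a dose series; inconclusive means first-round hits that could not be retested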;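 further: growth measured after seven days incubation then overnight dye step; 0% = bacteria only wells and 100% = bacteria with antibiotic; twin plates without the antibiotic show which effects depend on it; some results filed as inactive read as strong as hits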
Mtb H37Rv: M. tuberculosis H37Rv growth inhibitors, H37Rv strain (AID 1626); M. tuberculosis H37Rv growth inhibition; higher % means a stronger effect; inhibition, % at 10 µM; hits with a dose series show IC50 in µM; actives 0.95% (n = 220,000);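 active means confirmed in a dose series; inconclusive means inhibition above 80% but not taken into the dose series; inactive means below 80% or under 30% at every dose of the series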;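 further: bacteria incubated seven days before Alamar blue readout; 0% = bacteria only wells and 100% = bacteria with antibiotic wells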
Arbovirus anti: arbovirus infection inhibition. arbovirus infection cell-based antiviral screen. inhibition, % at 10 µM. actives 0.37% (n = 200,000). AID 1251;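 active means inhibition from about 30%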;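 further: bluetongue infection of BSR cells; cell survival read as ATP light after 72 h; 0% = infected wells without compound and 100% = uninfected wells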
Arbovirus anti repeat: second read-out of Arbovirus anti, no call of its own (marks repeat the call); inhibition, %; measured here: 10K subset replicate screen; many hits read low in the repeat;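 first of two repeat runs on a subset; 0% = infected and 100% = uninfected wells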
Active calls of the source: *; ? = inconclusive; . = no result given. Not all compounds are listed, so the mix of outcomes need not match the whole.

SMILES	RecA splice inh	YopH inh	Mtb betalactam	Mtb H37Rv	Arbovirus anti	others
COC(=O)[C@@H](NC(=O)NCc1cccc(OC)c1)C(C)C	2.2	-20	-2	-2%	6
C=CCNC(=O)/C(C#N)=C/c1ccccc1Cl	4.8	.	1	1%	3
COc1ccc(NS(=O)(=O)c2ccc(-c3coc(C)n3)cc2)cc1	-5.2	.	-3	.	.
O=[N+]([O-])c1cccc(/C=N/Nc2ncc(Br)cn2)c1	-2.5	.	0	.	.
CCC(C)OC(=O)C1=C(C)O[C@]23OC(N)=C(C#N)[C@]12C(=O)c1ccccc13 (some centres undefined)	15	38	-5	4%	-5
COc1ccc(C(=O)C2CCN(C(=S)NCCc3ccc(OC)c(OC)c3)CC2)cc1	-0.1	.	1	12%	-2
CC(NC(=O)c1ccccc1)c1ccc(Br)cc1 (centres undefined)	-0.9	.	-2	9%	-2
CCOC(=O)N1N=C(CC)CC1(O)C(F)(F)F (centres undefined)	1.1	-5	-2	-13%	0
CCOC(=O)CCNCc1ccc(F)cc1	-2.5	.	1	-5%	-3
COc1ccc(C(=O)N2CCc3cc(OC)c(OC)cc3C2c2cccc([N+](=O)[O-])c2)cc1OC (centres undefined)	-12	-9	-2	-1%	10
CC(=O)N1CCN(Cc2nc3cc(NS(C)(=O)=O)ccc3n2C)CC1	-0.7	-15	6	2%	-2
CC1CCN(S(=O)(=O)c2cn(C)c(=O)n(C)c2=O)CC1	-0.9	-27	-2	1%	18
O=C(NC(=S)Nc1cc(Cl)ccc1N1CCOCC1)c1ccccc1[N+](=O)[O-]	9.7	.	3	.	.
CC(=O)OCCCn1c(C)[n+](C)c2cc(Cl)c(Cl)cc21	-0.2	.	-5	-4%	-2
Cn1c(SCC(=O)Nc2ccc3c(c2)OCO3)nnc1-c1cnccn1	-0.4	-32	-16	4%	9
Cc1ccccc1NC(=S)NCC(c1cccnc1)N1CCOCC1 (centres undefined)	-3.6	7	11	-5%	12
O=C(CSc1nnc(COc2ccccc2F)n1-c1ccccc1)NCc1ccco1	.	-22	-9	-7%	5
CCOC(=O)CSc1nnc(COc2ccc3ccccc3c2)o1	4.6	.	2	.	.
O=c1cc(-c2ccccc2)[nH]n2cnnc12	-1.9	.	-5	.	.
COc1ccc(NC(=O)C2=CC(c3ccc(C)cc3)=NS(=O)(=O)N2C)cc1OC	4.0	.	4	.	.
N=c1oc2ccccc2cc1-c1nc2ccccc2c(=O)[nH]1	0.2	-5	-3	10%	2	Arbovirus anti repeat=1
COc1ccc(NC(=O)CN2CCN(c3ccc(F)cc3)CC2)cc1Cl	0.4	-36	58	66%	3
COc1cc(C(=O)Oc2ccccc2/C=N/NC(=O)c2ccc(C)cc2)cc(OC)c1OC	0.7	-25	36	3%	-21
COc1ccc(-c2cn3cccc(C)c3n2)cc1F	1.0	.	10	1%	5
CC(=O)c1nnn(-c2cccc([N+](=O)[O-])c2)c1C	-4.6	.	2	-7%	-4

Overlap with the part before: three entries; new compounds follow.
SMILES	RecA splice inh	YopH inh	Mtb betalactam	Mtb H37Rv	Arbovirus anti	others
COc1cc(C(=O)Oc2ccccc2/C=N/NC(=O)c2ccc(C)cc2)cc(OC)c1OC	0.7	-25	36	3%	-21
COc1ccc(-c2cn3cccc(C)c3n2)cc1F	1.0	.	10	1%	5
CC(=O)c1nnn(-c2cccc([N+](=O)[O-])c2)c1C	-4.6	.	2	-7%	-4
CC(=O)Nc1ccc(NC(=O)CCCN2C(=O)c3ccccc3C2=O)cc1	-0.1	.	-6	-2%	-1
Cc1cccc(C(C)C)c1NC(=O)COC(=O)COc1ccc2c(C)cc(=O)oc2c1	0.8	3	1	0%	6
CCN(CC)S(=O)(=O)c1ccc(OC)c(NC(=O)c2ccc([N+](=O)[O-])cc2)c1	3.2	.	2	0%	1
C=CCNc1cccc(Br)c1	-0.2	.	-4	-13%	.
CCOc1ccc(/C=N/NC(=O)C(=O)NCc2ccco2)cc1	1.1	-23	1	27%	-4
O=C(O)c1ccccc1C(=O)Nc1ccccc1[N+](=O)[O-]	0.1	.	-5	1%	.
COc1ccc(C(=O)Nc2ccc(S(=O)(=O)Nc3ncccn3)cc2)cc1OC	1.8	.	4	-5%	1
CCc1ccc(C(O)(c2ccccc2OC)C(CN2CCOCC2)c2ccccc2)cc1 (centres undefined)	-0.9	.	12	7%	-12
Cc1cc(C)c(NC(=O)C2=CCN(S(=O)(=O)c3ccc(F)cc3)CC2)c(C)c1	-0.7	-18	25	.	-8
CCCCc1nccn1CCn1ccnc1CCCC	1.4	-82	8	-3%	11
NC1=NC[C@H](Cc2ccccc2)N1CCc1cc(C(F)(F)F)cc(C(F)(F)F)c1	8.7	.	100	?	.
Cc1nc(SC2CC(=O)N(c3cc(Cl)cc(Cl)c3)C2=O)nc2c1CCCC2 (centres undefined)	15	-31	-12	-4%	-3
CCOC(=O)c1ccc(Nc2sc(C(=O)c3cccc([N+](=O)[O-])c3)c(N)c2C#N)cc1	0.6	.	8	-4%	.
COc1ccc(CC(=O)Nc2nc(C)cs2)cc1OC	.	-1	-3	1%	14
CCCCNC(=O)N1CCN(C(=O)C2CCCO2)CC1 (centres undefined)	-0.7	.	-6	6%	4
CCOc1ccc(N=Cc2c(O)n(CCc3ccc(OC)c(OC)c3)c(=O)[nH]c2=O)cc1	2.0	.	94	.	.
CCOC(=O)c1c(NC(=O)Cn2nnc(-c3ccc(Cl)cc3)n2)sc(C)c1C	-1.1	0	-12	-7%	-5
CSCCC(NC(=O)c1ccco1)C(=O)O (centres undefined)	-1.5	5	4	-4%	8
CC(C)N(C(=O)COC(=O)CNC(=O)c1ccc(Br)cc1)c1ccccc1	3.7	-29	6	-9%	-5
Cc1ccc(NC(=O)CN2CCCCCC2)c(Br)c1	-0.3	-34	.	6%	-14
Cn1c(C(=O)Nc2ccc3c(c2)OCCO3)cc2c(=O)n(C)c3ccccc3c21	-2.6	-14	-7	-14%	-7	Arbovirus anti repeat=-13
COCCCn1c(C(=O)N2CCOCC2)cc2c(=O)n3cccc(C)c3nc21	-0.5	.	3	.	.
CCCC(=O)Nc1nnc(S(=O)(=O)N2CCCCCC2)s1	-0.8	.	-4	.	.
COc1ccc(C2CC(=O)C(C=NCCCO)=C(O)C2)cc1 (centres undefined)	19	.	0	.	.
CCS(=O)(=O)NCc1ccc2c(c1)cc(C)n2C	23	-18	1	24%	-1
The list continues:
SMILES	RecA splice inh	YopH inh	Mtb betalactam	Mtb H37Rv	Arbovirus anti	others
CC(=O)Cn1cnc2c(sc3nc(C)cc(C)c32)c1=O	-5.4	.	-4	-4%	.
O=C(C#Cc1ccccc1)Nc1ccccc1F	4.4	.	81	.	.
O=S(=O)(c1ccc(F)cc1)c1nc(-c2ccc(F)cc2)oc1NCCN1CCOCC1	-4.1	-5	.	2%	10
O=C(COc1ccccc1)Nc1cccc(-c2nc3cc4ccccc4cc3[nH]2)c1	.	-41	71	55%	-26
COCCCN1C(=O)N(c2ccc(F)cc2)C(=O)C1CC(=O)Nc1ccccc1 (centres undefined)	-1.0	.	-3	.	.
COc1ccc(-c2csc(NC(=O)C3CCCCN3S(=O)(=O)c3ccccc3)n2)cc1 (centres undefined)	12	-14	24	22%	-8
CCN(CC)c1ccc(-c2nc3cnccc3n2C)cc1	-1.9	-10	0	11%	-12
O=C(c1ccc(=O)oc1)N1CCN(c2ccc(F)cc2)CC1	0.6	.	-3	-14%	9
O=C(COC(=O)Cc1ccccc1F)Nc1ccc(F)cc1F	-0.9	.	-2	-6%	1
Cc1ccc(NC(=O)CSc2nc3ccccc3c3nc(CCn4cncc4C)nn23)c(C)c1	1.5	-18	1	-1%	0
CC1CCc2cc(F)ccc2N1C(=O)CCl (centres undefined)	.	.	.	10%	-8
COCCn1c(=O)[nH]c2cc(C(=O)NCCN3CCN(c4ccccc4)CC3)ccc2c1=O	.	-47	-1	-11%	-3	Arbovirus anti repeat=1
CCOc1ccc(CNC(=O)C2CCN(C(=O)N3CC(C)Oc4ccccc43)CC2)cc1 (centres undefined)	-1.5	.	-6	.	.
CC(C)NC(=O)c1cc(-c2ccco2)nn1-c1ccc(Cl)cc1	5.3	-18	12	0%	-7
Cc1ccc(S(=O)(=O)N(C)CC(=O)N2CCN(C(=O)c3ccco3)CC2)cc1	-2.0	-37	-6	0%	0
CCOC(=O)Cn1nc(C)cc1NC(=O)c1cccnc1	1.5	.	-3	3%	0
COC(=O)c1c([N+](=O)[O-])c(OC)c(OC)c(OC)c1[N+](=O)[O-]	-2.4	.	0	6%	2
CC(=O)Nc1ccc(SCC(=O)Nc2cc(C)on2)cc1	-2.6	.	37	10%	-4
CCOc1ccc(Nc2nc(Cc3nnc(SCC(=O)NC4CCCCC4)n3C)cs2)cc1	3.1	-8	14	0%	14
Cc1ccc(OCC(=O)N(c2ccccn2)C2CCCCC2)c(C)c1	3.1	-19	-5	6%	0
O=C1CN(S(=O)(=O)c2cccc(Cl)c2Cl)c2ccccc2N1	2.4	.	-2	.	.
CNc1nc2[nH]c(=O)c3c(c2s1)OC(N)=C(C#N)C3c1ccccc1 (centres undefined)	-0.7	-7	7	-9%	-1
Cn1cnnc1-c1cccc(NC(=O)c2cc(F)c(F)cc2Cl)c1	-4.0	.	0	-5%	-6
COc1ccc(CNC(=S)Nc2ccccc2)cc1	0.2	.	-2	.	.
COc1ccc(Cl)cc1C(=O)NCCCn1ccnc1	2.7	.	2	.	.

Retrieved by compound from above, four records:
SMILES	RecA splice inh	YopH inh	Mtb betalactam	Mtb H37Rv	Arbovirus anti	others
COCCCN1C(=O)N(c2ccc(F)cc2)C(=O)C1CC(=O)Nc1ccccc1 (centres undefined)	-1.0	.	-3	.	.
Cc1ccc(NC(=O)CSc2nc3ccccc3c3nc(CCn4cncc4C)nn23)c(C)c1	1.5	-18	1	-1%	0
O=S(=O)(c1ccc(F)cc1)c1nc(-c2ccc(F)cc2)oc1NCCN1CCOCC1	-4.1	-5	.	2%	10
CC1CCc2cc(F)ccc2N1C(=O)CCl (centres undefined)	.	.	.	10%	-8

More structures follow.
SMILES	RecA splice inh	YopH inh	Mtb betalactam	Mtb H37Rv	Arbovirus anti	others
O=C(c1cnn2c(C(F)(F)F)cc(-c3cccs3)nc12)N1CCCC1	-48	.	-2	6%	.
CCOC(=O)N1CCN(C(=S)NC(=O)c2c(-c3c(Cl)cccc3Cl)noc2C)CC1	-0.2	.	1	-6%	5
Cc1onc(-c2ccccc2)c1C(=O)Nc1nnc(CC(C)(C)C)s1	-1.8	.	3	.	.
Cc1ccc(Cl)cc1N1CCN(Cc2nnnn2Cc2ccco2)CC1	8.9	-34	1	.	9
CCOc1ccc2nc(NC(=O)C(NS(=O)(=O)c3cccc4nsnc34)C(C)C)sc2c1 (centres undefined)	6.6	-1	-3	14%	-22
c1ccc(-c2csc3nnc(SCc4ccc5c(c4)OCO5)n23)cc1	6.5	-4	-1	12%	5	Arbovirus anti repeat=-4
Cc1cccc(Oc2ccc(S(=O)(=O)N3CCCCC3)cc2N)c1	9.7	.	92	-7%	14
Cc1ccccc1NC(=O)Cn1c(=O)oc2ccccc21	1.6	.	25	.	.
CC1CCc2nn(CC(=O)N3CCCCCC3)cc2C1 (centres undefined)	1.3	0	-6	-3%	0	Arbovirus anti repeat=3
COc1ccc(C(=O)OCn2nnc3ccccc3c2=O)cc1	-5.8	.	100	?	-5
COc1ccccc1OCC(=O)Nc1ccccc1C(=O)NCc1cccnc1	5.0	.	1	.	.
O=C(O)c1ccccc1SCCS(=O)(=O)c1ccc(Cl)cc1Cl	-1.7	.	2	.	.
Cc1nnc(NC(=O)CN2CCN(Cc3ccccc3Cl)CC2)s1	-0.7	.	4	.	.
Cc1cccc(C(=O)NNC(=O)CSc2nnc(C(C)C)n2C)c1	2.1	.	-5	.	.
COc1cc(NC(=O)Cn2cnc3ccccc3c2=O)c(OC)cc1Cl	1.0	.	-12	1%	-14
COc1cc(OC)c(C=O)c(OC(=O)N(C)C)c1	1.2	.	-9	9%	6
CS(=O)(=O)c1nc(S(=O)(=O)c2ccc(Cl)cc2)c(NCc2ccccn2)s1	-1.8	.	2	7%	0
O=C(O)/C=C\C(=O)Nc1ccc(N2CCN(c3cccc(Cl)c3)CC2)cc1	15	.	30	-9%	0
COC(=O)c1ccc(S(=O)(=O)N2CCC(C(N)=O)CC2)n1C	-1.1	.	3	6%	.
Cc1c(C(=O)N2CCN(C(=O)c3ccco3)CC2)oc2c(Cl)cccc12	1.6	.	-2	.	.
Cc1ccc(Cn2c(=O)sc3ccccc3c2=O)cc1	1.4	-36	-1	5%	-1
COc1ccc(-c2cc(C3CC3)nc3sc(C#N)c(N)c23)cc1	-14	-31	15	7%	9
Cc1nn(C)c(C)c1NC(=O)C12CC3CC(CC(C3)C1)C2	0.0	-16	6	2%	-2
COc1ccc(OC)c(/C=N/n2c(C)nc3ccccc3c2=O)c1	-4.2	.	-3	.	.
